Compound activity as filed in PubChem BioAssay.
MT1-MMP act inh: MT1-MMP (human) activation inhibition | P50281 | HT1080 RFP-PRO-GFP cells, GFP/RFP ratio fluorescence, overnight; percent of plate control window, DMSO zero | GFP/RFP ratio change, % at 20 µM | 360,000 compounds, 0.061% hits | AID 651647;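 active = GFP/RFP ratio change of at least 30% with cell ATP level not reduced by more than half and red fluorescence within 50% of control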; also: strong numbers were not always called active
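Material: RFP-PRO-GFP reporter HT1080 cells. Dosing: single-point 20 µM compound, 1% DMSO. Controls: DMSO and RFP-L50D-GFP cell wells. Timing: cells overnight before dosing, compound overnight, 37 °C, 5% CO2. Measure: GFP/RFP fluorescence ratio.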
HIV Env fusion: inhibitors of HIV Env-mediated cell fusion. HeLa-JRFL Env/CEM21 cell fusion, luciferase. inhibition, % at 12.3 µM. 360,000 compounds, 1.1% hits. AID 651610;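 active = mean replicate inhibition score of at least 50 and every replicate individually at or above 50; inconclusive = only one of the two criteria met; inactive = mean below 50 and not all replicates reaching 50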;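 also: 0% = plate neutral controls and 100% = maraviroc near 300 nM; one replicate is shown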
eIF4H FP inh: inhibitors of RNA binding by human eIF4H; eIF4H fluorescence polarization binding assay; inhibition, % at 35 µM; 290,000 compounds, 0.94% hits;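 active = 50% or more with normal probe brightness, or confirmed in later tests; inconclusive = above 50% with abnormal brightness, or retests that disagree; inactive = below 50% or failed in later tests; about a fifth of its hits are not listed in these tables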;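 also: calls also rest on retests at 20 µM and on dose response follow-up; 0% = protein and probe with vehicle and 100% = probe without protein; strong numbers were not always called active; many hits fall short of the cut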
PABP polyA inh: blocks human PABP binding to poly(A) RNA. P11940. fluorescence polarization. inhibition, % at 35 µM. 290,000 compounds, 1% hits. AID 2014;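 active = 50% or more with normal probe brightness, or confirmed in later tests; inconclusive = above 50% with abnormal brightness, or retests that disagree; inactive = below 50% or failed in later tests; about a fifth of its hits are not listed in these tables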;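 also: calls also rest on retests at 20 µM and on dose response follow-up; controls were probe without protein and protein plus probe with vehicle; some compounds called inactive have numbers as strong as hits; many hits fall short of the cut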
CSC inhib: blocks cancer stem cells. 300,000 compounds, 1.1% hits. inhibition, % at 7.5 µM. AID 2717. cancer stem cell-like cells viability, luminescence;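 active = mean at 75% or more and at least half the replicates too; inconclusive = mean and replicates disagree; tested in HMLE shEcad cells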;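 also: 0% = median of negative and 100% = median of positive control wells; the first replicate is given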
Rce1 inh: yeast Ras-converting enzyme inhibition; Q03530; yeast membranes, quenched prenylated peptide cleavage fluorescence; calls only; 290,000 compounds, 0.27% hits; AID 2563;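 active = fall in fluorescence gain of 50% or more versus controls, with final raw signal at or below 3038400; inconclusive = same 50% fall but final raw signal above 3038400; inactive = fall in fluorescence gain under 50%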;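 also: plate controls were neutral control wells for no effect and wells lacking membranes for full effect; tested at 10 µM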
Target sequence (Q03530 whole entry, looked up): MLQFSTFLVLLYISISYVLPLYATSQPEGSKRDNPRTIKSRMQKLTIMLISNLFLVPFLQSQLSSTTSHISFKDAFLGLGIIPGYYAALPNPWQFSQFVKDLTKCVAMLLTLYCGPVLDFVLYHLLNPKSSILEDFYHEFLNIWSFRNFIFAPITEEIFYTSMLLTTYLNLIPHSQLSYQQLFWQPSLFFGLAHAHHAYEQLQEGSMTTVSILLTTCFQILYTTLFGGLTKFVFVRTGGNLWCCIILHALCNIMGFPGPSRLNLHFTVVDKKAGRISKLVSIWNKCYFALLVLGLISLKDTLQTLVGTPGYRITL
Yeast UUG start: modulators of start codon recognition fidelity in yeast; S. cerevisiae UUG-firefly luciferase reporter, luminescence/redox ratio; activity score, % at 18.7 µM; 350,000 compounds, 0.13% hits; AID 602363;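 active = replicate mean at a twofold rise or more, about +100% in these data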;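 also: firefly luciferase made from a UUG start codon reports start codon fidelity; reporter light over untreated wells divided by growth signal over untreated wells; some hits fall short of that in this replicate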
eIF4H FP inh retest: also measured in eIF4H FP inh; calls as there; inhibition, %; compound at 20 µM; confirmation average;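 mean of two retest wells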
PABP polyA inh retest: recorded beside PABP polyA inh, whose call it bears; inhibition, %; compound at 20 µM; confirmation repeats;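 mean of two retest wells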
MT1-MMP act inh RFP: recorded beside MT1-MMP act inh, whose call it bears; RFP signal change, %; measured here: RFP expression control read;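 0 = vehicle wells; hits needed this value within 50% of zero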
* hit, by the source's call; i = inactive; ? = inconclusive; nt = not tested or not shown; + = active, no number. Rows were taken by chance; about 2.9% have a hit in one of these screens.

SMILES	MT1-MMP act inh	MT1-MMP act inh RFP	HIV Env fusion	eIF4H FP inh	PABP polyA inh	CSC inhib	Rce1 inh	Yeast UUG start	others
CCNC(=S)N/N=C/c1ccco1	0	0	-1	-10	-13	2	nt	-8
Cc1cccc(NCc2ccc(O)c3ncccc23)c1	-20	-25	44	19	12	33	i	-10
CCOc1ccccc1NC(=O)CSc1nc2c(c(=O)n1C)SC(C)C2 (stereo not given)	0	-6	13	6	2	-2	i	-1
COc1cc(OC)c(/C=N/n2c(C3CCCCC3)n[nH]c2=S)c(OC)c1	-1	0	34	-2	-3	nt	i	-5
CCOc1cccc(-c2nc(C(N)=O)c3[nH]c(=O)n(-c4cccc(Cl)c4)c3n2)c1O	2	2	-28	-18	-19	0	i	-26
FC(F)(F)c1nnc2sc(-c3ccccn3)nn12	4	4	-88	-5	-2	-14	i	nt
Cc1ccc(-c2cn3cccnc3n2)cc1	1	2	-30	-4	-6	-14	i	-20
Cc1cccc(-n2ncc3c2CCCC3NC(=O)C2CCOCC2)c1C (stereo not given)	-1	-23	8	0	-3	0	i	-12
CN(Cc1ccccc1)c1ccc(C(CC(N)=O)NC(=O)Cc2ccc(Br)cc2)cc1[N+](=O)[O-] (stereo not given)	8	-9	?	-3	-4	37	i	-10
COc1ccc(NC(=O)c2nc[nH]c2C(=O)N[C@@H](C)c2ccccc2)cc1	2	5	-103	4	4	-17	i	1
COc1ccc(CN2CCSc3sccc3C2=O)cc1	3	0	16	-4	5	-8	i	1
O=C(NCc1ccc(Cl)cc1)C1=Cc2cc(Cl)ccc2OC1	7	0	-22	-10	-16	nt	i	-3
COc1ccc(C)cc1NC(=O)NCc1ccccc1F	6	3	10	3	0	41	i	nt
CC(=O)Nc1ccc(C(=O)CSc2nc3ccccc3n2CC(=O)N2CCCC2)cc1	-6	0	-18	-4	-3	-20	i	-12
COc1cc2c(cc1OC)CN(C(=O)C1CCCN1S(=O)(=O)c1ccc(F)cc1)CC2 (stereo not given)	-1	1	0	-12	10	11	i	4
COc1ccc(C(=O)NC(=S)NC(C)c2ccccc2)cc1 (stereo not given)	8	-3	-21	nt	nt	nt	i	-1
O=C(c1ccc([N+](=O)[O-])o1)N1CCN(c2nc3c(F)cc(F)cc3s2)CC1	2	-9	-4	nt	nt	7	i	4
CC(C)(C)CN1C(=O)C(=O)NC[C@@H]1Cc1ccc(O)cc1	0	6	0	-2	-6	-10	i	-23
O=C(CNC(=O)c1cccs1)N/N=C/c1ccco1	3	4	-7	8	6	4	i	nt
CCOC(=O)N1CCN(C(=O)Cn2ncc3ccccc32)CC1	1	8	-20	29	15	-6	i	-11
O=C(NNS(=O)(=O)c1ccc([N+](=O)[O-])cc1)c1ccncc1	2	5	0	2	7	nt	i	-16
O=C(N/N=C/c1ccncc1)c1nc(-c2ccccc2)n2c1CCCCC2	6	1	-6	-8	-7	-1	i	-16
O=C(O)c1cc([N+](=O)[O-])c(NCc2cccnc2)c([N+](=O)[O-])c1	0	5	-49	-4	-14	-11	i	-8
CCOC(=O)N1CCN(c2ccc(C(=O)c3cccc(F)c3)cc2)CC1	-12	-15	nt	78	47	76*	i	-17	eIF4H FP inh retest=3;PABP polyA inh retest=-2
O=C(O)CSc1nnc(-c2ccc(Cl)cc2Cl)n1-c1ccc(Br)cc1	-9	3	-17	-10	3	-1	i	-19
Further entries follow:
SMILES	MT1-MMP act inh	MT1-MMP act inh RFP	HIV Env fusion	eIF4H FP inh	PABP polyA inh	CSC inhib	Rce1 inh	Yeast UUG start	others
Cc1ccc(NC(=O)C=NOCC(=O)Nc2cc(C)cc(C)c2)cc1	1	5	nt	nt	nt	-3	nt	4
O=C(OCc1cn([C@H]2CN(Cc3cccs3)[C@@H](c3ccc(Cl)cc3)C[C@@H]2O)nn1)c1ccccc1	1	3	7	nt	nt	nt	nt	-21
O=C(COC(=O)c1ccc(O)cc1)NCCC1=CCCCC1	0	6	-15	-9	12	-6	nt	nt
CCCCCCn1cnc2c(c1=O)c1nc3ccccc3nc1n2Cc1cccs1	0	2	nt	-11	0	9	i	-21
CCC(=O)c1ccccc1OCC(=O)Nc1c(C)cccc1C	-2	3	21	-3	0	nt	i	nt
O=c1c(/C=C(\O)c2ccccc2)nc2ccccc2n1-c1ccccc1	-24	2	nt	?	?	9	i	nt
NS(=O)(=O)c1ccc(CCNC(=O)CSc2nc3ccccc3c(=O)n2CCC(=O)N2CCCCC2)cc1	-4	-2	-8	3	4	6	i	nt
O=C(CCN1CCOCC1)Nc1ccc2c(c1)CCC2	-2	4	nt	8	-5	16	i	-24
CSc1ccc(S(=O)(=O)NCC(=O)OC(C)C(=O)NCc2ccccc2)cc1[N+](=O)[O-] (stereo not given)	4	2	-6	nt	nt	-12	i	-6
COc1cccc(-c2nn(-c3ccccc3)cc2CN(C)C(C)c2ccon2)c1 (stereo not given)	-4	-5	24	-9	-2	nt	i	-1
NNC(=O)CCc1nc2ccccc2[nH]1	nt	nt	-39	-1	5	-11	i	nt
COc1ccc(N2C(=O)C(Cl)=C(N3CCCC3)C2=O)cc1	0	-4	7	-4	8	0	i	nt
COc1ccccc1N1CCN(CC(=O)NC(=O)NCc2ccccc2)CC1	4	-1	40	nt	nt	nt	nt	-11
Cn1ncc(Br)c1C(=O)N1CCOCC1	2	2	-11	0	10	-10	i	43
CCC1(Cc2ccccc2)NC(=O)c2ccccc2O1 (stereo not given)	-1	1	22	0	5	1	i	nt
COc1cc(S(=O)(=O)N(C)C2CCCCC2)c(C)cc1C	-2	2	19	-5	6	nt	i	-8
Cc1ccccc1NC(=O)c1cnc2ccccn2c1=O	4	-3	-62	-1	-1	-3	i	-40
Cc1ccc(N(C(=O)CNC(=O)c2ccco2)C(C(=O)NC2CCCC2)c2ccncc2)cc1F (stereo not given)	-4	-3	9	-12	-5	-9	i	-12
O=C1CC(c2cccnc2)c2cc3c(cc2N1)OCO3 (stereo not given)	3	6	3	2	1	-15	i	-5
COc1ccc2nc3cccc(OC)c3nc2c1	4	1	-44	60	-10	6	i	-15	eIF4H FP inh retest=-12;PABP polyA inh retest=-1
Cc1ccc(S(=O)(=O)Nc2c(C)n(C)n(-c3ccccc3)c2=O)cc1C(=O)NCc1ccccn1	1	2	-17	9	6	7	i	-21
CCCc1nc(SCC(=O)Nc2cc(Cl)ccc2OC)c2c(=O)n(C)c(=O)n(C)c2n1	nt	nt	nt	-3	-7	nt	i	nt
CCOCC(=O)Nc1cccc(C(=O)OCC)c1	1	2	nt	2	-3	-1	i	-11
Cc1ccc(C(=O)Nc2cccc(S(=O)(=O)N(C)c3ccccc3)c2)o1	2	-4	7	nt	nt	nt	nt	6
COCC(C)NC(=O)c1ccc(-n2nc(C(F)(F)F)cc2-c2cccs2)cc1 (stereo not given)	1	-4	-23	-14	4	-2	i	-6
Next part
SMILES	MT1-MMP act inh	MT1-MMP act inh RFP	HIV Env fusion	eIF4H FP inh	PABP polyA inh	CSC inhib	Rce1 inh	Yeast UUG start	others
COc1ccccc1C(=O)Nc1ccccn1	-1	-3	-122	-10	3	-10	i	-8
O=[N+]([O-])c1cccc(-c2nc(NCc3ccccc3)c3ccccc3n2)c1	-8	-3	nt	-3	-4	30	i	-9
COc1ccc(NC(=S)Nc2ccc(OC)cc2OC)c(OC)c1	0	3	-9	3	-1	4	i	nt
O=C(O)c1ccc(/C=N/Nc2nc(N3CCCCC3)nc(N3CCCCC3)n2)cc1	3	5	6	5	13	-16	i	-2
CSc1ncccc1C(=O)OCc1ccccc1Cl	3	3	-6	-4	10	-16	i	nt
CN1CCN(/N=C/c2ccc(-c3ccc([N+](=O)[O-])cc3)o2)CC1	-30	1	-31	-8	-13	42	i	nt
CCn1cc(CN2CCCC(CO)(Cc3ccc(F)cc3)C2)c2ccccc21 (stereo not given)	0	2	15	-13	-7	12	i	4
CCCCn1c(=O)[nH]c(=O)c2c1nc(-c1ccc(-c3ccccc3Br)o1)n2CCOC	-4	2	nt	-14	-2	6	i	-18
COc1ccc2nc(SCC(=O)Nc3ccc4sc(C)nc4c3)c(C#N)cc2c1	-175	-6	-33	2	-3	nt	i	-15
Cc1cc(C)cc(N(CC(=O)Nc2ccccc2)C2=NC3CS(=O)(=O)CC3S2)c1 (stereo not given)	-7	-2	12	-5	19	-5	i	-8
CCOC1OC(=O)C(Cl)=C1Nc1ccccc1C (stereo not given)	-2	5	nt	2	20	5	i	nt
N#CCn1cc(/C=N/NC(=O)c2cc3c(ccc4ccccc43)o2)c2ccccc21	-5	-8	3	-7	-8	43	i	-3
Cc1[nH]cnc1CSCc1ccc(F)cc1	4	11	nt	2	-10	-3	i	-12
O=C(CSc1nnc(NC2CCCCC2)s1)NCc1ccco1	-1	-5	2	4	-7	-5	i	nt
CCOC(=O)Cc1nc(-c2ccc(Cl)cc2)n[nH]1	13	-2	-6	7	-7	2	i	nt
CCCN1C2=NS(=O)(=O)CCN2c2ccccc21	3	3	nt	12	3	9	i	-17
CCN=C1NN=C(c2ccc(C)cc2)CS1	-5	-2	nt	-5	-4	4	i	-24
CC1(C)Cc2nc3sc4c(NCCO)ncnc4c3cc2CS1	2	-2	-33	-5	3	-8	i	-16
COc1ccc(C2=NOC(C(=O)Nc3ccc4c(c3)OCCO4)C2)c(OC)c1 (stereo not given)	3	4	-9	2	10	-2	i	-2
O=C1/C(=C\c2ccco2)SC(=S)N1c1ccccc1	2	9	-17	86	5	-13	i	nt	eIF4H FP inh retest=-4;PABP polyA inh retest=3
CCN(CC)S(=O)(=O)c1ccc(N2CCCC2)c(NC(=O)c2ccc(OC)cc2OC)c1	1	-4	19	-2	12	-1	i	nt
CN(C)S(=O)(=O)Nc1cc(Cl)cc(Cl)c1	2	4	-17	12	11	-6	i	nt
O=C(NC1CCN(C(=O)NC2CCCCC2)CC1)c1cccc(F)c1	2	3	10	-1	-4	3	i	-13
CC(C)c1nc2ccccn2c1NC1CCCCC1	-3	-4	2	0	4	-12	i	-16
O=C(CN1C(=O)c2ccccc2C1=O)NCCc1c[nH]c2ccc(Cl)cc12	4	3	4	-6	6	-3	i	nt

Overlap with the part before: 2 compounds, followed by the next part.
SMILES	MT1-MMP act inh	MT1-MMP act inh RFP	HIV Env fusion	eIF4H FP inh	PABP polyA inh	CSC inhib	Rce1 inh	Yeast UUG start	others
CC(C)c1nc2ccccn2c1NC1CCCCC1	-3	-4	2	0	4	-12	i	-16
O=C(CN1C(=O)c2ccccc2C1=O)NCCc1c[nH]c2ccc(Cl)cc12	4	3	4	-6	6	-3	i	nt
CC1(C)Cc2c(sc(NC(=O)COc3ccc(Cl)cc3Cl)c2C(N)=O)C(C)(C)N1	4	-2	-76	-8	14	7	i	10
Nc1cc2nsnc2cc1Br	-9	-9	nt	33	26	4	i	-41
O=C(Oc1cccnc1)c1cc2ccccc2oc1=O	14	0	nt	7	11	nt	i	-12
Cn1c(SCC2CCCCC2)nnc1-c1ccncc1	-1	-7	-30	-2	2	-1	i	-1
CCNc1c(NC(=O)COc2ccc(Cl)cc2)c(=O)oc2ccccc12	3	4	1	-8	-4	-11	i	-7
CCOc1ccc(-n2c(SCc3ccc([N+](=O)[O-])cc3)nnc2-c2ccc(OC)cc2)cc1	-11	-13	16	-2	-4	nt	+	nt
O=C(CSc1nc(O)cc(=O)n1-c1ccccc1)NCc1ccccc1	-1	5	-6	-4	2	-12	i	-8
